# HTT promoter inh – inhibitors of huntingtin promoter activity; actives 0.93% (n = 48,000); HEK293 HTT promoter firefly luciferase reporter (activity 0% = vehicle and -100% = no light), 24 h; AID 1508623; Potency, µM (top dose mostly 57.5 µM), inactives show top-dose activity change, negative = inhibition, usual class: inhibitors; active = well fitted inhibition curve with a large enough effect; inconclusive = small, poorly fitted or top-dose-only effect; inactive = no such curve, though single readings can be large or run the other way; note: nearly all actives have a fitted effect of over 50% in size
#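 HEK293 cells carrying firefly luciferase reporters were seeded at 2,500 per well in Opti-MEM and cultured for 24 h. They were then treated with compounds at up to 57.5 uM final for 24 h at 37 degrees C before Dual-Glo luminescence readout.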
# PMP22 txn – PMP22 gene transcription modulation. AID 1508649. actives 2% (n = 43,000). Potency, µM (highest dose often 57.5 µM), without a hit: at the top dose activity change, negative = inhibition, hits mostly inhibitors. S16 Pmp22-F2sN Schwann cells (luciferase reporters placed in the Pmp22 gene), FLuc/NLuc coincidence luminescence, 24 h; active = clear falling dose curves in both reporters; inconclusive = both reporters move, but less clearly or upward; inactive = either reporter flat; the % is the NLuc reporter signal; note: % is set by controls: 0 for no effect and ±100 for the full control effect; some results filed as inactive show a strong effect at the top dose
#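 Schwann cells carrying the coincidence reporter were exposed to library compounds for 24 h at 37C, then lysed and read for FLuc and, after quenching, NLuc luminescence on a CCD imager.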
# * hit, by the source's call; ? = inconclusive; . = no result given; & = joins results of further samples; [ ] = another dose, or the depositor's remark. Potency is the fitted concentration of half-maximal effect. This is a random part of the collection. Share with any hit: about 2.7%.
SMILES,HTT promoter inh,PMP22 txn
CCOC(=O)C1CCCN(C(=O)Cn2ncc3c(C)n(Cc4ccc(F)cc4)c(C)c3c2=O)C1 (stereo unspecified),?,?
COc1ccc(CCNC(=O)CCN2N=C(c3ccccc3)CCC2=O)cc1OC,13%,-17%
Cc1cccc(C)c1NC(=O)C1CCCN(S(=O)(=O)c2c(C)noc2/C=C/N(C)C)C1 (stereo unspecified),-11%,-3%
COc1ccc(-c2nc(SCC(=O)NC3CCCC3)c(-c3ccc(C)cc3)[nH]2)cc1OC,?,?
CCOc1ccccc1NC(=O)c1cc2cc(C)ccc2n1C,-14%,-85%
CCN(CC)S(=O)(=O)c1ccc(C(=O)Nc2nc3c(Cl)cc(Cl)cc3s2)cc1,?,?
CC(=O)N1CCc2c(sc3c2c(=O)n(-c2ccccc2Cl)c(=O)n3C)C1,17%,-2%
CCOc1cccc(Nc2nn(-c3ccc(OC(F)(F)F)cc3)nc2C(C)=O)c1,0%,0%
O=c1c2cccnc2n(Cc2ccccc2F)c(=O)n1Cc1ccc(F)cc1,-24%,-11%
CCN(CC)C(=O)c1sc2c(c1C)c(=O)n(CCc1ccccc1)c(=O)n2Cc1ccc(C)cc1,?,?
COc1ccccc1Nc1cc(C(=O)NC2CCCC2)c2ccccc2n1,-26%,-33%
COc1cc(/C=C(\C#N)c2nc3ccccc3[nH]2)ccc1OCc1ccccc1F,?,13µM*
Cc1ccc(-n2nc3cc(C)c(NC(=O)COc4ccccc4)cc3n2)cc1,24%,5%
CCCc1cc(=O)n2[nH]c(NCc3c(F)cccc3Cl)nc2n1,-19%,3%
COc1ccc(NC(=O)Nc2cccc(C)n2)c(OC)c1,40%[activator],-15%
COc1ccc(CNC(=O)c2cc3c(=O)n(C)c4ccccc4c3n2C)c(OC)c1,7%,-30%
Cc1ccccc1C(C(=O)NC1CCCC1)N(C(=O)Cn1cnc2ccccc21)c1cccc(F)c1 (stereo unspecified),-3%,.
Cc1ccc(C2CCN(C(=O)Nc3ccc(C)c(C)c3)C2)cc1 (stereo unspecified),31%[activator],5%
CCOc1ccccc1CNC(=O)CCCn1c(=O)c2cccn2c2cccnc21,2%,-10%
COc1cc(CNCCSc2nnnn2C)ccc1OCc1ccccc1C,9%,-22%
CCc1ccc(S(=O)(=O)c2cn(Cc3ccccc3)c3cc(N4CCCC4)c(F)cc3c2=O)cc1,3%,-11%
COc1ccc(-n2nnnc2C2CCN(S(=O)(=O)c3cccc(Cl)c3C)CC2)cc1,-14%,-20%
CCc1ccc(C(=O)c2cn(CC(=O)Nc3cc(F)ccc3F)c3nc(C)ccc3c2=O)cc1,6%,-27%
CC1=C(c2ccc(C)c(C)c2)S(=O)(=O)N(Cc2ccc(C(=O)Nc3cc(F)ccc3F)cc2)C1=O,?,-14%
Cc1nn(CCCC(=O)NCc2ccc(F)cc2)c(=O)c2c1sc1ccccc12,9%,-20%
Nc1c(C(=O)NCc2cccs2)nnn1CC(=O)Nc1cccc(F)c1,-6%,?
Cc1cc(N2CCC(C)CC2)nc2ccc(NC(=O)CCC(=O)N3CCN(c4ccccc4F)CC3)cc12,-19%,?
Cc1ccc(NC(=O)Cn2c(=O)ccc3cc(S(=O)(=O)N4CCCC4)ccc32)cc1N(C)C,?,-20%
CCC(=O)N1CCc2cc(S(=O)(=O)CCC(=O)N3CCN(c4cccc(C)c4C)CC3)ccc21,-2%,-15%
O=C(c1ccc(Cl)cc1)N1CCCCC1CCN1CCOCC1 (stereo unspecified),-14%,-10%
COc1ccc(S(=O)(=O)NCc2nc3nc(C)cc(C)n3n2)cc1OC,8%,-10%
Clc1ccc(N2CCN(c3ncnc4c3cnn4-c3ccccc3)CC2)cc1Cl,8%,15%
Cc1cc(C)c(NC(=O)CCN2C(=O)c3ccccc3Sc3ncccc32)c(C)c1,-11%,?
Cc1ccc2onc(CC(=O)Nc3ccc(C(C)C)cc3)c2c1,-15%,7%
Cc1ccccc1CSc1ccc(-c2cccs2)nn1,2%,3%
CCOC(=O)Cn1c(=O)n(C2CCCCC2)c2nc(-c3cccc(OC)c3)nc(C(N)=O)c21,-6%,-13%
COc1ccc(-c2nc(SCC(=O)N3CCCCC3C)n[nH]2)cc1 (stereo unspecified),-27%,-6%
Cc1ccccc1-c1noc(-c2ccccc2OCC(=O)Nc2cccc([N+](=O)[O-])c2)n1,-11%,-9%
COc1ccc(N2CC(NC(=O)C(=O)c3c[nH]c4ccccc34)CC2=O)cc1 (stereo unspecified),-9%,30%
CCc1ccc(CNC(=O)C2CCN(c3nnc(C)c4c(C)n(-c5ccc(C)cc5)nc34)CC2)cc1,-13%,?
O=S(=O)(NCCc1nnc2ccc(SCc3ccc(Cl)cc3Cl)nn12)c1ccccc1,-1%,?
COc1ccc(-n2c(C)nc3c(cnn3-c3ccc(C)c(C)c3)c2=O)cc1Cl,-22%,-17%
O=C(Nc1ccc(C(=O)OCc2cc(=O)n3nc(C4CC4)sc3n2)cc1)c1cccc(F)c1,-18%,8%
COc1ccc(S(=O)(=O)NCCc2sc(-c3cccc(C)c3)nc2C)cc1,-30%,?
CCOc1ccccc1NC(=O)CSc1nc2c(c(=O)[nH]1)CCC2,-10%,-1%
COc1cc2c(C(=O)Nc3ccc(C)cc3Br)cn(C)c(=O)c2cc1OC,-9%,-8%
CC(NC(=O)c1cc2sccc2n1Cc1ccc(F)cc1)c1ccccc1 (stereo unspecified),-14%,?
N#CC(=C1Nc2ccccc2S1)c1ccnc(OCc2ccc(CN3CCOCC3)cc2)n1,?,.
Cc1ccc(C(=O)Nc2ccc(-c3cn4cccnc4n3)cc2)cc1C,31%[activator],?
COc1ccc(C(=O)c2c(N)c(-c3nc(-c4ccc(OC)cc4)cs3)c3ccccn23)cc1,-8%,4%

# Next section.
SMILES,HTT promoter inh,PMP22 txn
Cc1ccc2c(c1)CC(C)N2S(=O)(=O)c1nnc(NC(=O)c2ccccc2F)s1 (stereo unspecified),?,-36%
COC(=O)c1ccc(-n2c(CCC(=O)O)ccc2-c2ccc(C)cc2)cc1,-5%,-11%
CC1=C(C)C(=O)C(C(CCCCCC(=O)O)c2ccccc2)=C(C)C1=O (stereo unspecified),-1%&3%,.
CC(C)(C)C1CCc2c(sc(NC(=O)Cn3nnc(-c4ccccc4Cl)n3)c2C#N)C1 (stereo unspecified),-1%,-13%
COc1ccc(-c2nc(CNS(=O)(=O)c3ccccc3)cs2)cc1,?,-29%
CCc1nnc(SC(CC)C(=O)NCCOC)c2cc3occc3n12 (stereo unspecified),-2%,?
Cc1nc2nc(SCC(=O)N(Cc3ccccc3)C(C)C)nn2c(C)c1Cc1ccccc1Cl,-16%,-8%
CO[C@H]1C[C@@H]2CC[C@@H](C)[C@@](O)(O2)C(=O)C(=O)N2CCCC[C@@H]2C(=O)O[C@H]([C@@H](C)C[C@@H]2CC[C@H](O)[C@H](OC)C2)CC(=O)[C@H](C)C=C(C)[C@@H](O)[C@@H](OC)C(=O)[C@H](C)C[C@H](C)C=CC=CC=C1C,-5%,.
Cc1ccc(C(=O)Nc2nnc(S(=O)(=O)N3CCCc4ccccc43)s2)cc1,12%,-10%
CCOc1ccc(CNC(=O)CN2C(=O)CSc3c2c(C)nn3-c2ccccc2)cc1,-4%,-19%
COc1ccc2oc(-c3ccc(C)c(NC(=O)c4ccc5c(c4)OCCO5)c3)nc2c1,0%,-14%
Cc1cccc(-n2ncc3c(N4CCCC(C)C4)ncnc32)c1 (stereo unspecified),?,?
Cn1c(=O)c2c(-c3ccc(Br)cc3)n(Cc3ccc(F)cc3)cc2n(C)c1=O,-14%,?
COc1cccc(CNC(=O)C2CCCN(c3nnc(-n4c(C)ccc4C)s3)C2)c1OC (stereo unspecified),-20%,?
COc1ccccc1C(=O)Nc1c(C(=O)N(CCN(C)C)Cc2ccco2)oc2ccccc12,?,?
Cc1ccc(C)c(-c2ccc(=O)n(C(C)C(=O)Nc3ccccc3C(F)(F)F)n2)c1 (stereo unspecified),-27%,2%
CNC(=O)c1c(NC(=O)c2ccc(S(=O)(=O)N3CCC(C)CC3)cc2)sc2c1CCC2,-1%,-18%
Cn1c(=O)oc2cc(S(=O)(=O)NC(Cc3ccccc3)C(=O)NCc3ccc(F)cc3)ccc21 (stereo unspecified),-7%,5%
Cc1ccc(CNc2ncccc2-c2nc(-c3ccc(Cl)cc3)no2)cc1,15%,-8%
COc1ccccc1-c1noc(-c2ccc(N3CCN(C)CC3)c([N+](=O)[O-])c2)n1,?,?
CCCOc1cccc(C(=O)Nc2cc(-c3nc4ccccc4[nH]3)ccc2C)c1,-24%,?
COc1cccc(C(=O)NC2(C(F)(F)F)C(=O)Nc3c2c(=O)[nH]c(=O)n3-c2ccc(C)cc2)c1 (stereo unspecified),-2%,-20%
CN1CC[C@@H](c2c(O)cc(O)c3c(=O)cc(-c4ccccc4Cl)oc23)[C@@H](O)C1,?,.
O=C(O)COc1nn(Cc2ccccc2)c2ccccc12,-5%,.
CCOC(=O)c1c(NC(C)=O)c2c3c(sc2n1Cc1cc(C)ccc1C)CCCC3,-21%,-3%
Cc1nc(N2CCOCC2)c2c(C(=O)N3CCN(c4cccc(C)c4C)CC3)c(C)oc2n1,-26%,2%
CCN1CCN(c2cc(C)c3cc(NC(=O)c4cccc(C(F)(F)F)c4)ccc3n2)CC1,-5%,-11%
CCOc1ccc(NC(=O)CN(Cc2ccccc2)S(=O)(=O)c2ccc(Cl)cc2)cc1,-44%,?
Cc1csc2nc(COc3ccccc3NC(=O)c3ccccc3Cl)cc(=O)n12,-8%,-50%
Cc1ccc(Cl)cc1NC(=O)Cn1c(=O)cc(C)c2c(C)nn(C)c21,-16%,19µM*
O=C(CCCn1c(=O)c2cccn2c2ccc(F)cc21)NCc1ccc(Cl)cc1,-5%,?
Cc1ccc2[nH]c3c(=O)n(CC(=O)Nc4ccc(Br)cc4C)ncc3c2c1,-2%,6%
CCOc1ccc(N2CC(NC(=O)c3ccc(S(=O)(=O)N4CCOCC4)cc3)CC2=O)cc1 (stereo unspecified),-18%,4%
CSc1ccc(C2c3c(oc4cc(C)cc(C)c4c3=O)C(=O)N2CCO)cc1 (stereo unspecified),7%,33%
O=c1oc2c3c(ccc2c2ccccc12)OCN(Cc1cccc(Cl)c1)C3,-4%,-9%
CCC(C)NC(=O)Cn1c(=O)n(-c2ccc(Cl)c(Cl)c2)c(=O)c2c(C)c(C(=O)N(CC)CC)sc21 (stereo unspecified),0%,22%
Cc1[nH]c2ccccc2c1C1(O)C(=O)N(Cc2ccccc2)c2ccc(Cl)cc21 (stereo unspecified),?,16µM*
COc1ccc2oc(=O)c(C(=O)NCCc3c(C)[nH]c4c(C)cccc34)cc2c1,-3%,-7%
COc1cccc(C(=O)NC(=NCCc2c[nH]c3ccc(OC)cc23)Nc2nc(C)cc(C)n2)c1,-31%,?
COC(=O)c1ccccc1NC(=O)c1cc2nc(-c3ccccc3)cc(-c3ccccc3)n2n1,-1%,-3%
Cc1cc(C)cc(-n2ccnc2SCC(=O)Nc2nnc(C)s2)c1,?,?
Cc1ccc(NC(=O)Cn2c(=O)n(CCc3ccccc3)c(=O)c3c4c(sc32)CCCC4)c(C)c1,1%,0%
O=C(NCCc1ccccc1)c1ccc2c(c1)N(Cc1ccc(F)cc1)C(=O)CS2,?,-39%

# Screens deposited in PubChem BioAssay by National Center for Advancing Translational Sciences (NCATS).
